# VACV mCherry inh – vaccinia inhibition (mCherry reporter); 0.63% of 310,000 active; Potency, µM (series often up to 36.5 µM), inactives show at the highest dose activity change, negative = inhibition, hits mostly inhibitors; Vaccinia virus mCherry reporter infection, fluorescence; about a quarter of the inactives have no number; AID 720579; active = well fitted inhibition curve with a large enough effect; inconclusive = small, poorly fitted or top-dose-only effect; inactive = no such curve, though single readings can be large or run the other way; tested in A549 cells; also: nearly all actives have a fitted effect of over 35% in size; inactives centre near -10
# VACV Venus inh – vaccinia inhibition (Venus reporter); Vaccinia virus Venus reporter expression, fluorescence; AID 720580; Potency, µM (titrated, usually from 36.5 µM), for inactives: at the top dose activity change, negative = inhibition, hits mostly inhibitors; 0.46% of 330,000 active; active means well fitted inhibition curve with a large enough effect; inconclusive means small, poorly fitted or top-dose-only effect; inactive means no such curve, though single readings can be large or run the other way; tested in A549 cells; also: nearly all actives have a fitted effect of over 30% in size; inactives centre near -10
# Starred values were filed as active, the others as inactive; i = inactive; ? = inconclusive; . = not tested or not shown; & = joins results of further samples; [ ] = remark or other dose. % is scaled to controls: 0 for no effect and ±100 for the full control effect; potency is read from the fitted curve at half-maximal effect.
# The line under a structure holds: VACV mCherry inh	VACV Venus inh
CCC1CCCCN1C(=O)CSc1nnc(N)s1 (stereo not given)
  -3%	0%
CCOc1ccc(/C(O)=C2/C(=O)C(=O)N(Cc3cccnc3)C2c2ccc(N(C)C)cc2)c(C)c1 (stereo not given)
  -13%	-6%
COc1cc(OC)cc(C2=Cc3ccccc3C(CC(C)=O)N2c2ccc(C#CC3(O)CCCCC3)cc2)c1 (stereo not given)
  i	-25%
Cc1oc2ccc(O)c(CN3CCCC(C)C3)c2c1C(=O)Nc1ccccc1 (stereo not given)
  i	-16%
COC(=O)[C@@H]1C[C@@]2(O)[C@H](O)[C@H](O)[C@H](O)C[C@H]2N1Cc1ccc(C(F)(F)F)cc1
  i	4%
Cc1ccc2oc(=O)c3cnn(CC(=O)N4CCN(c5ccccn5)CC4)c3c2c1
  i	3%
COC(=O)c1cccc(NC(=S)NCCC2=CCCCC2)c1
  -22%[1.46 µM]	?
COc1ccccc1CNC(=O)CCCn1c(=O)c2ccccc2n(CC(=O)Nc2c(C)cc(C)cc2C)c1=O
  -10%	0%
CCOc1ccc(/C=N/NC(=O)c2ccccc2O)cc1CN1CC2CC(C1)c1cccc(=O)n1C2 (stereo not given)
  -4%	-11%
O=C(CSc1nncn1-c1cccnc1)Nc1cccc([N+](=O)[O-])c1
  -1%	-1%
CCC(CO)Oc1cc(NC(=O)c2cccc(Cl)c2)c2ncn(C(C)C)c2c1 (stereo not given)
  i	-8%
CCN(CC)CCNC(=O)c1ccc(NC(=O)c2c(C)nn(-c3ccc(F)cc3)c2Cl)cc1
  i	-4%
CN(CC(=O)NNC(=O)Cc1ccccc1F)S(=O)(=O)c1ccc(Cl)cc1
  i	-10%
CC(=O)N1CCCc2cc(S(=O)(=O)N(C)CCC#N)ccc21
  -8%	-2%
CC1CC2C(C(O)CC3(C)C(O)CCC23)C2(C)CCC(=O)C=C12 (stereo not given)
  -1%	0%
COC(=O)c1c(-c2ccccc2)noc1-c1ccccc1
  i[7.34 µM]	-11%[7.34 µM]
CCN(CC)S(=O)(=O)c1ccc(OC)c(NC(=O)c2cn(CC)c3nc(C)ccc3c2=O)c1
  i	-12%
COC(=O)Cc1ccc(NC(=O)c2ccccc2Cl)cc1
  -13%	-10%
CCCCOc1ccc(C(=O)NCCc2csc3nc(-c4ccccc4F)nn23)cc1
  -12%	5%
Cc1ccc(NC(=O)C2COc3ccccc3O2)cc1C (stereo not given)
  -3%	-19%
CC(=O)Nc1ccc(-c2ccnc3c2CC(C)(C(=O)NCCc2ccccc2)O3)cc1 (stereo not given)
  i	-23%
N=C1S/C(=C\c2cn[nH]c2-c2ccc(F)cc2)C(=O)N1c1ccccc1F
  -3%	-7%
Cc1ccc(C)c(N2CCN(C(=O)C3CCN(c4nc(-c5ccc(C(C)C)cc5)no4)CC3)CC2)c1
  -8%[7.34 µM]	-15%[7.34 µM]
O=C(c1cc(C2CCCCN2S(=O)(=O)c2cccs2)on1)N1CCOCC1 (stereo not given)
  6%	-9%
Cc1ccc(C)c2sc(NC(=O)c3ccc(N4C(=O)CCC4=O)cc3)nc12
  i	-20%
COC(CNC(=O)CNC(=S)N(Cc1ccccc1)Cc1cccs1)OC
  -8%	-8%
COCc1cc(=O)[nH]c(Sc2c(-c3ccccc3)c3ccc(Cl)cc3[nH]c2=O)n1
  i	-11%
CCOC(=O)c1cccc(NC(c2nnc(-c3ccccc3)o2)c2ccccc2F)c1 (stereo not given)
  -7%	-2%
COc1cc(/C=C2/C(=N)N3C(SC)=NSC3=NC2=O)ccc1OC(=O)c1ccco1
  -14%	4%
Cc1ccc(C2=NN(CCC(=O)NCCc3cccc(C)c3)C(=O)CC2)cc1
  -7%	-11%

# Next section, overlapping the part above by two compounds.
# The line under a structure holds: VACV mCherry inh	VACV Venus inh
COc1cc(/C=C2/C(=N)N3C(SC)=NSC3=NC2=O)ccc1OC(=O)c1ccco1
  -14%	4%
Cc1ccc(C2=NN(CCC(=O)NCCc3cccc(C)c3)C(=O)CC2)cc1
  -7%	-11%
Cc1cccnc1NC(=S)NCCc1ccccc1
  i	8%
CCOc1ccc(Nc2c3c(nc4nncn24)CCC3)cc1
  ?	-21%
O=C(c1cccc([N+](=O)[O-])c1)c1ccc2c(c1)C(=O)NC2=O
  -14%	6%
CCN(CC)CCN1C(=O)C(=O)/C(=C(/O)c2ccc(S(=O)(=O)N3CCOCC3)cc2)C1c1ccc(C)cc1 (stereo not given)
  i	-4%
CCc1nn(CC(=O)NCCc2ccc(OC)cc2OC)c(=O)c2cc3c(OC)cccc3n12
  -2%	-8%
CCC(=O)N1CCc2cc(CNS(=O)(=O)c3cc(OC)ccc3OC)ccc21
  -11%[7.34 µM]	-5%[7.34 µM]
Cc1cccc(N2C(=O)CS(=O)(=O)C23C(=O)N(Cc2c(F)cccc2Cl)c2ccccc23)c1 (stereo not given)
  0%	-5%
Cc1nn(C)cc1/C=N/NC(=O)CSc1ccccn1
  -7%	0%
O=C(NCc1ccccc1)c1cc(C2CCCCN2S(=O)(=O)Cc2ccccc2)on1 (stereo not given)
  30%	-9%
Cn1ccnc1C(=O)Cc1ccc([N+](=O)[O-])cc1
  -6%	-14%
CC(C)Sc1nc2c(cnn2-c2ccccc2)c(=O)[nH]1
  -22%	-21%
CCOc1ccc(NC(=O)c2nc(S(=O)(=O)Cc3ccc(C)cc3)ncc2Cl)cc1
  ?	?
COC(C[C@@H]1O[C@@H]1[C@H](O)[C@@H](C)OCc1ccccc1)OC
  i	-4%
COC(=O)C1=C(C)N(Cc2ccccc2)C(=NCc2ccccc2)N[C@H]1c1cccc(F)c1
  ?	?
O=C1CNC(=S)N1c1nc2ccccc2s1
  -5%	6%
COCCNC(=O)C1(C)CCN(C(=O)c2ccc(C(F)(F)F)nc2C)C1 (stereo not given)
  21%	9%
COC(=O)c1ccccc1C(=O)c1cccc2ccccc12
  -9%	-13%
O=C(COc1ccccc1C(=O)Nc1ccccc1)Nc1ccc(Br)cc1
  -23%	-24%
COc1ccc(Cc2nnc(NC(=O)CSc3ccccc3)s2)cc1OC
  -18%	-5%
CN(CC(=O)N1CCN(c2ccc(F)cc2)CC1)S(=O)(=O)c1ccc2c(c1)c(=O)n(C)c(=O)n2C
  -9%	-21%
Cc1csc2nc(COC(=O)c3ccccc3NC(=O)c3ccc(C(C)(C)C)cc3)cc(=O)n12
  -24%	-17%
Cc1c(C(=O)N(Cc2ccccc2)C2CCS(=O)(=O)C2)oc2ccccc12 (stereo not given)
  i	-12%
CCCNC(=O)C1(C)CCCN(Cc2c(C)nn(-c3ccccc3)c2C)C1 (stereo not given)
  24%	6%
Cc1cccc(NC(=O)[C@H](Cc2c[nH]c3ccccc23)NC(=O)[C@@H]2Cc3ccccc3CN2)c1
  11µM*	33%[activator]
CCOc1ccc(S(=O)(=O)Nc2ccc(C(=O)N(CC)CC(=O)NCc3cccs3)cc2)cc1
  i	-16%
CC12CCC(C(=O)N3CCCCC3)([C@H](Br)C1=O)C2(C)C (stereo not given in full)
  i	0%
Cc1ccccc1NC(=O)NCC1CCN(c2ccc(S(=O)(=O)N3CCOCC3)cc2)CC1
  -3%	-4%
COc1ccc(Cn2c(SCc3ccc(C(=O)NCc4cccs4)cc3)nc3cccnc32)cc1
  -26%	-27%
CCC(c1nnc(SCC(=O)Nc2ccc(C(=O)N(C)C)cc2)n1Cc1ccccc1)N(C)C (stereo not given)
  i	-10%
CCO[C@H]1OC(C(=O)O)=C[C@@H](c2ccccc2)[C@@H]1CCCO
  i	-12%

# Molecules from the list above that contain a nitro group on carbon, in the order listed:
# The line under a structure holds: VACV mCherry inh	VACV Venus inh
O=C(CSc1nncn1-c1cccnc1)Nc1cccc([N+](=O)[O-])c1
  -1%	-1%
O=C(c1cccc([N+](=O)[O-])c1)c1ccc2c(c1)C(=O)NC2=O
  -14%	6%
Cn1ccnc1C(=O)Cc1ccc([N+](=O)[O-])cc1
  -6%	-14%

# (list continues)
# The line under a structure holds: VACV mCherry inh	VACV Venus inh
CCOc1ccc(N(C(=O)CNC(=O)c2ccco2)C(C(=O)NCC2CCCO2)c2ccccc2)cc1 (stereo not given)
  -3%	-15%
CCCc1nc(-c2cc3ccccc3[nH]c2=O)no1
  -9%	24%
CN(C)c1ccc(C2C3C(=O)NC(=O)C3ON2c2ccc(Cl)cc2)cc1 (stereo not given)
  -2%	6%
Cc1ccc(S(=O)(=O)NCc2cccnc2)s1
  .	-10%
Cc1onc(-c2ccccc2)c1C(=O)NC(C)CCc1ccccc1 (stereo not given)
  i	-19%
CCOC(=O)C1CCCN(C(=O)/C=C/c2cccc([N+](=O)[O-])c2)C1 (stereo not given)
  i	-19%
COc1ccc(CCN(C)C(=O)C2CCN(Cc3cccc(OC)c3OC)CC2)cc1OC
  i	-3%
CCOc1ccc(-c2cc(NC(=O)c3c(F)cccc3F)c(C(=O)OC)s2)cc1
  -10%	-4%
Cc1ccc(-c2nc3ccccc3[nH]2)cc1N
  -5%	-4%
COc1ccc(C(N)c2csc(Nc3cc(Oc4ccccc4)ncn3)n2)cc1 (stereo not given)
  ?	-20%
Cc1ccc(-n2nc(C)c3c(C)c(CCC(=O)NC(C)c4ccccc4)c(C)nc32)cc1 (stereo not given)
  -17%	-20%&-26%
N#Cc1c(NC(=O)C2CC(c3ccccc3O)=NO2)sc2c1CCC2 (stereo not given)
  -1%	-15%
Cc1ccc(NC(=O)CCS(=O)(=O)c2ccc3nc(C)sc3c2)cc1
  -8%&-17%	-11%&-10%
Cc1cc(-n2nc(C)cc2C)n2ncc(-c3ccccc3)c2n1
  -28%	-22%
CCOc1cc(-c2c(C#N)c(N)nc3c2CCc2ccccc2-3)ccc1O
  ?	?
Cc1ccnc(NC(=O)CCCc2ccccc2)c1
  i	-6%
Cc1ccsc1CN(C(=O)c1ccc(Br)cc1)C1CCS(=O)(=O)C1 (stereo not given)
  -5%	-7%
Cc1ccc(C(=O)NCCCNC(=O)Cc2ccc(Cl)cc2)cn1
  -14%	-11%
O=C1c2cccc(-c3ccc(C(F)(F)F)cc3)c2C2CC=CCN12 (stereo not given)
  i	-8%
O=C(CN1C(=O)c2ccccc2S1(=O)=O)NCc1c(F)cccc1F
  i	-6%
C(=C\c1ccnc2ccccc12)/c1cccs1
  3%	-20%
Cc1ccc(CNC(=O)c2cnccn2)cc1
  -4%	-6%
CCN(CC)CC1C(=O)N(c2ccc(OC)cc2)C1c1ccccc1 (stereo not given)
  -5%	-7%
CCNC(=S)Nc1cccc(Cl)c1C
  .	-15%
O=C(Nc1cc(OC(=O)C(F)(F)F)c2nonc2c1OC(=O)C(F)(F)F)C(F)(F)F
  ?	?
Cn1ccnc1SCc1ccc(Cl)cc1Cl
  -18%	-4%
Cc1cc(C(=O)Nn2c(-c3ccc(Br)cc3)nc3ccccc3c2=O)ccc1[N+](=O)[O-]
  i	-22%
COc1cccc(N2CCN(C(=O)c3cccc(N4C(=O)NC5CC4(C)Oc4c(OC)cccc45)c3)CC2)c1 (stereo not given)
  -22%	-5%
Cc1ccc(-c2cc(C(=O)NCc3ccco3)no2)cc1
  -8%	-5%
Cc1[nH]c2ccc(OC(F)(F)F)cc2c1CCNCc1ccc(Cl)cc1
  -24%	-22%
Cc1ccc2nc(CN(C)C(=O)[C@H]3O[C@@H](n4ccc(=O)[nH]c4=O)[C@H](O)[C@@H]3O)[nH]c2c1
  38%[activator]	18%
CN1/C(=C\C=C(/C#N)C(=O)Nc2ccc(Cl)cc2)C(C)(C)c2ccccc21
  -7%	2%
CCCC(c1nnnn1Cc1ccccc1)N1CCC(C(N)=O)CC1 (stereo not given)
  .	-9%
CCC(C)NC(=O)C1CCCCN1S(=O)(=O)c1ccc(F)cc1 (stereo not given)
  i	-8%
CCOC(=O)c1cnc(NCc2ccc(OC)cc2OC)c2ccccc12
  -1%[7.34 µM]	-5%[7.34 µM]
COC(=O)c1ccccc1NC(=O)NCCc1ccc(OC)c(OC)c1
  -15%	-9%
CCOc1ccccc1NC(=O)CN1C(=O)COc2ccc(C)cc21
  -22%	-5%
CCC(=O)Nc1c(C)nn(-c2ccc(C)c(C)c2)c1C
  i	-16%
CN1CCN(/N=C/c2ccc(Cl)c(Cl)c2)CC1
  i	-15%
COc1cccc(CNC(=O)c2cc(-c3ccc(Cl)cc3)n[nH]2)c1
  -3%	-6%
CC1(C)CC(NC(=S)NCc2ccco2)CC(C)(C)N1
  -11%	-6%
CC(C)(C)C(=O)NC(=S)Nc1cc(C(=O)O)ccc1Cl
  -13%	-3%
Cc1oc2ccc(O)c(CN3CCN(C)CC3)c2c1C(=O)Nc1cccc(Cl)c1C
  -21%	-8%
C=CCN1C(=O)/C(=C\c2ccc(N3CCOCC3)o2)C(=O)NC1=S
  i	32%[activator]
COc1cc(NC(=O)CCNS(=O)(=O)c2cc(Br)cnc2N)cc(OC)c1
  i	-12%
CCOc1cc(C#N)c(-n2nnc3c(sc4nc(C)cc(C)c43)c2=O)cc1OCC
  0%	3%
COc1cc(C(c2nnnn2C(C)(C)C)N2CCN(c3nc4ccccc4s3)CC2)ccc1O (stereo not given)
  .	-8%
CCN(CC)C(=O)C12CC3CC(CC(Br)(C3)C1)C2
  i	-20%
CCOC(=O)c1ccccc1NC(=S)N1CCCCC1
  -7%	0%
CC(C)[C@H](NC(=O)c1ccccc1)C(=O)OCC(=O)N1CC(=O)Nc2ccccc21
  -12%	-8%
